# VACV mCherry inh: qHTS for Stage-Specific Inhibitors of Vaccinia Orthopoxvirus: mCherry Reporter Primary qHTS; Vaccinia virus mCherry reporter infection, fluorescence; about a quarter of the inactives have no number; Potency, µM (highest dose often 36.5 µM), for the others: top-dose activity change, negative = inhibition, most hits filed as inhibitors; 310,000 tested, 0.63% active; AID 720579, 2013; active = well fitted inhibition curve with a large enough effect; inconclusive = small, poorly fitted or top-dose-only effect; inactive = no such curve, though single readings can be large or run the other way; tested in A549 cells; further: nearly all actives have a fitted effect of over 35% in size; inactives centre near -10
# Vaccinia Venus: qHTS for Stage-Specific Inhibitors of Vaccinia Orthopoxvirus: Venus Reporter Primary qHTS. Vaccinia virus Venus reporter expression, fluorescence. Potency, µM (series often up to 36.5 µM), for inactives: at the top dose activity change, negative = inhibition, actives largely listed as inhibitors. 330,000 tested, 0.46% active; active means well fitted inhibition curve with a large enough effect; inconclusive means small, poorly fitted or top-dose-only effect; inactive means no such curve, though single readings can be large or run the other way; tested in A549 cells; further: nearly all actives have a fitted effect of over 30% in size; inactives centre near -10
# * marks the source's active call; other numbers are inactive results; i = inactive; ? = inconclusive; · = not tested or not shown; & = joins results of further samples; [ ] = dose if it differs, or a comment. On the % scale 0 is the no-effect control and ±100 the full control effect; potency means the concentration at half of the fitted maximal effect.
SMILES,VACV mCherry inh,Vaccinia Venus
CCn1cc(C(=O)OCC(=O)c2cc(C)n(-c3ccc(OC(F)F)cc3)c2C)c(=O)c2ccc(C)nc21,i,-8%
O=C(COC(=O)C1COc2ccccc2O1)NC(=O)Nc1ccc2c(c1)OCCO2 (configuration not stated),·,-9%
CCOc1cc(C2Nc3ccccc3C(=O)N2c2ccccc2)c(Br)cc1OCC(=O)O (configuration not stated),-2%,-8%
CCOc1ccc2c(c1)c(=O)c(C(=O)c1ccc(CC)cc1)cn2CC(=O)Nc1ccccc1C,-28%,?
C=CCN(C(=O)CNC(=O)c1ccco1)C(C(=O)NC1CCCCC1)c1ccccc1F (configuration not stated),-11%,-6%
O=C(NC1CCCC1)C(c1ccncc1)N(C(=O)Cc1cccs1)c1ccccc1 (configuration not stated),i,3%
O=C1NC[C@@H](CCCCN2CCN(CCc3ccccc3)C(=O)C2=O)N(CC2CCCCC2)C1=O,12%,2%
Cn1c(=O)c2cc(NC(=S)NC3CC3)ccc2n1Cc1ccc(F)cc1,?,-2%
COC(=O)c1cc(=O)nc(NN=Cc2ccco2)s1,7%,9%
CCC(ONc1ccccc1C(F)(F)F)(C(=O)NN(C)C)c1ccccc1 (configuration not stated),?,-17%
COc1ccc(CCNC(=O)c2ccc3c(c2)ncn3-c2ccc(C)cc2C)cc1OC,i,-11%
CC1CCN(S(=O)(=O)c2ccc(C(=O)Nc3nc4ccc(F)cc4s3)cc2)CC1,-7%,5%
COc1cccc(NC(=S)N2CCCC2)c1,-18%,4%
COc1ccc(S(=O)(=O)NCc2ccccn2)cc1OC,-7%,-13%
CCn1nc(NC(=O)c2ccco2)c2cc3cc(C)ccc3nc21,?,-30%
O=C(NS(=O)(=O)Oc1ccc(F)cc1F)OC[C@@H]1CCCN2CCCCC12 (some centres not stated),-6%,0%
Cc1cnc([N+](=O)[O-])n1CCOC(=O)NC(=O)c1ccc(C(F)(F)F)cc1,4%,4%
O=C1CCC(/C=C/c2ccccc2)=NN1Cc1ccc(Cl)c(Cl)c1,-16%,-3%
CCC(C)NC(=O)CCc1c(C)nc2nc(-c3cc(OC)cc(OC)c3)nn2c1C (configuration not stated),-10%,3%
CCOc1ccccc1N(CC)C(=O)Cn1ncc2c1-c1ccccc1OC2,-23%,-5%
Cc1ccc2nc(C)c(C(=O)N/N=C/c3ccc(C(=O)O)cc3)cc2c1,i,-4%
Cc1ccccc1Nc1cc2ccccc2c(=O)[nH]1,·,10µM*
COc1cccc(CCC2C(=O)CCCC2=O)c1,-1%,-12%
COc1ccc(NC(=O)c2cn(CCC#N)nc2-c2cccc([N+](=O)[O-])c2)cc1,-2%,-9%

# Ordered by SMILES length (descending): some entries from above.
SMILES,VACV mCherry inh,Vaccinia Venus
COc1ccc(NC(=O)c2cn(CCC#N)nc2-c2cccc([N+](=O)[O-])c2)cc1,-2%,-9%
CCC(C)NC(=O)CCc1c(C)nc2nc(-c3cc(OC)cc(OC)c3)nn2c1C (configuration not stated),-10%,3%
O=C(NS(=O)(=O)Oc1ccc(F)cc1F)OC[C@@H]1CCCN2CCCCC12 (some centres not stated),-6%,0%
O=C1CCC(/C=C/c2ccccc2)=NN1Cc1ccc(Cl)c(Cl)c1,-16%,-3%
COc1ccc(S(=O)(=O)NCc2ccccn2)cc1OC,-7%,-13%
Cc1ccccc1Nc1cc2ccccc2c(=O)[nH]1,·,10µM*

# Continuation.
SMILES,VACV mCherry inh,Vaccinia Venus
CCC(=O)c1c(NC(C)C)cc(C)oc1=O,0%,-11%
O=C(CN1CCc2ccccc21)NC(=O)NCc1ccccc1,-4%,4%
CCOC(=O)CNc1nc(C#N)nc(N2CCOCC2)n1,6%&-8%,5%&-15%
CCn1ccc2cc(S(=O)(=O)N3CCC(C(=O)NCc4ccc(OC)cc4)CC3)ccc21,-19%,-13%
CCCCCC(=O)N1C[C@@H](O)[C@H](n2cc(C3CC3)nn2)C[C@@H]1c1ccccc1,i,-13%
COc1ccc(C(=O)NCC(c2cccnc2)N2CCc3ccccc3C2)cc1 (configuration not stated),-20%,-21%
CCOC(=O)c1c(C)[nH]c(C)c1S(=O)(=O)N1CCCC(C(=O)N2CCN(c3ccccc3)CC2)C1 (configuration not stated),-19%,-11%
CCc1cccc(NC(=O)Cn2c(=O)n(Cc3ccccc3)c(=O)c3c2c2cc(OC)ccc2n3C)c1,4%,-6%
Oc1ccc(-c2cnns2)c(O)c1,-9%,-11%
Cc1cccc(Nc2nnc(-c3ccc(C)c(S(=O)(=O)N4CCN(C)CC4)c3)c3ccccc23)c1,?,-29%
COc1ccccc1OCCSc1nc2ccccc2c(=O)[nH]1,i,-10%
CCc1ccccc1NC(=O)c1noc(C(C)C)c1[N+](=O)[O-],-12%,-29%

# An excerpt from further up, as a working copy:
SMILES,VACV mCherry inh,Vaccinia Venus
CCC(=O)c1c(NC(C)C)cc(C)oc1=O,0%,-11%
O=C(CN1CCc2ccccc21)NC(=O)NCc1ccccc1,-4%,4%
CCOC(=O)CNc1nc(C#N)nc(N2CCOCC2)n1,6%&-8%,5%&-15%

# (continued)
SMILES,VACV mCherry inh,Vaccinia Venus
COc1ccc(/C=C2\SC(=S)N(CCC(=O)Nc3ccc(C(=O)O)cc3)C2=O)cc1OC,-6%,-7%
COc1cc(NC(=O)c2cc3c(=O)n(Cc4ccco4)ccc3nc2C)cc(OC)c1OC,-2%,-10%
CCNC(=O)NC(=O)COC(=O)c1cccc(NS(=O)(=O)/C=C/c2ccccc2)c1,-14%,-12%
Cc1ccc(CN(Cc2ccco2)C(=S)Nc2ccccc2C)cc1,-5%,-8%
COc1ccc(Cn2cc(C(=O)c3ccc(F)cc3)c(=O)c3cc4c(cc32)OCCO4)cc1,-11%,-6%
Cn1c(=O)oc2cc(S(=O)(=O)NCCC(=O)NCCc3ccc(Cl)cc3)ccc21,-1%,-15%
COc1ccccc1NC(=O)Nc1nc(C(N)Cc2ccc(C(F)(F)F)cc2)cs1 (configuration not stated),-2%,?
O=c1[nH]c(CN2CCOCC2)nc2scc(-c3ccccc3)c12,-4%,8%
CN(CC(=O)Nc1ccccc1C(F)(F)F)C(=O)c1cc(-c2cccs2)nn1-c1ccccc1,i,-15%
COc1ccc(N2CC(C(=O)OCC(=O)Nc3cc(C)on3)CC2=O)cc1 (configuration not stated),-12%,-1%
O=C(c1ccccc1)c1nn(-c2ccc(Cl)cc2)cc1C(=O)c1cc2ccccc2oc1=O,-8%,-4%
CC(=O)N(c1ccc2oc(=O)sc2c1)S(=O)(=O)c1ccc(C)cc1,?,-10%
O=C(COc1ccc(/C=C\[N+](=O)[O-])cc1)N1CCOCC1,0%,-19%
COc1ccccc1N1CCN(C(=O)CSc2nc3ccccc3nc2Cc2ccc(C)cc2)CC1,-3%,-10%
COC(=O)C1=C(C)N(Cc2ccccc2)C(=NCc2ccccc2)N[C@H]1c1cccc(C(F)(F)F)c1,?,14µM*
Cc1ccc(Nc2nnc(SCC(=O)Nc3cccnc3Cl)s2)cc1C,-15%,-17%
O=C(COc1ccccc1)Nc1cccc(-c2cn3cccnc3n2)c1,-19%&-14%,-7%&-8%
COC(=O)c1ccc(C#Cc2ccccc2)o1,i,0%
O=C(Nc1ccc(F)cc1)c1cn(-c2ccccc2)nc1-c1ccncc1,i,-24%
O=C(NCCO)c1cc2c([nH]c3ccccc32)c(-c2ccccc2)n1,?,-16%
CCc1ccc(N(C(=O)c2snc(C(N)=O)c2N)C(C(=O)NCC2CCCO2)c2ccco2)cc1 (configuration not stated),i,0%
COc1cc2c(-c3cc(F)cc(F)c3)c(-c3ccsc3)oc(=O)c2cc1OC,i,-14%
CCc1nc2nc(C)cc(C)n2c1Nc1ccc(OC)cc1,-15%,-9%
O=C(CSc1nccn1Cc1ccc(Cl)cc1)NCc1ccccc1,3%,-9%

# The list goes on, starting with the last 2 of the part before.
SMILES,VACV mCherry inh,Vaccinia Venus
CCc1nc2nc(C)cc(C)n2c1Nc1ccc(OC)cc1,-15%,-9%
O=C(CSc1nccn1Cc1ccc(Cl)cc1)NCc1ccccc1,3%,-9%
O=C(CSc1ccc(-c2ccccc2)nn1)NC1CCCCC1,i,-12%
CCOc1cccc(CNC(=O)c2ccc(N3CCCC3)c(NC(=O)NCc3ccccc3)c2)c1,-16%,-20%
CC1(OC(=O)C2CCCC2)C(=O)C=C2C=C(c3ccc(C#N)cc3)OC=C2C1=O (configuration not stated),i,6%
COCCCNC(=S)NNC(=S)NCCCOC,i,-3%
CCC(C)NC(=S)N1CCN(C(c2ccccc2)c2ccccc2)CC1 (configuration not stated),?,-19%
CCCOc1ccc(N2C(=O)CC(SC(=NCC)NCC)C2=O)cc1 (configuration not stated),-9%,-8%
COc1ccc(CCNC(=O)CCNS(=O)(=O)c2ccc3c(c2)CCN3C(C)=O)cc1OC,i,-13%
CC(C)(C)S(=O)(=O)c1cnc(N2CCOCC2)nc1N,-19%,-12%
O=C(CCC1N=C2c3ccccc3N=C(SCc3ccc(Cl)cc3)N2C1=O)N1CCN(c2ccccc2)CC1 (configuration not stated),1%,-4%
COC(=O)[C@@]12CCCCN1[C@H](c1ccc(-c3ccc4c(c3)OCO4)cc1)[C@H]1C(=O)N(C)C(=O)[C@H]12,-8%,-28%
CCOc1ccc2c(C)c(Cl)c(=O)oc2c1,·,-4%
COc1ccc(NC(=O)c2ccco2)cc1NC(=O)c1ccccc1F,-8%,-16%
CCOC(=O)c1c(C)[nH]c(C(=O)OCC(=O)Nc2cccnc2Cl)c1C,-30%,-19%
COc1ccc(N2CSC3=C(C#N)C(c4cc(OC)c(OC)cc4OC)CC(=O)N3C2)c(OC)c1 (configuration not stated),-20%,-4%
CCOC(=O)CCNC(=O)N1CCCC(N2CCN(c3ccc(OC)cc3)CC2)C1 (configuration not stated),-10%,-11%
O=C(NCc1ccccn1)c1ccc(Cn2cc(C(F)(F)F)ccc2=O)cc1,i,-19%
COc1ccc(N2CC(C(=O)Nc3nnc(SCC(=O)Nc4ccc(NC(C)=O)cc4)s3)CC2=O)cc1 (configuration not stated),-17%,-7%
Cc1ccc(-c2c(C(=O)N/N=C/c3cccnc3)nnn2-c2nonc2N)cc1,-15%,-8%
CN(CC#CC(O)(c1ccccc1)c1ccccc1)C(C)(C)C,i,-10%
O=C(CN(c1ccccc1Cl)S(=O)(=O)c1ccccc1)NCc1ccccc1,i,-2%
CC(=O)Nc1cccc(S(=O)(=O)N2CCCCCC2)c1,i,-6%
CC(C)(OC(=O)NC(=O)C(F)(F)F)C(C)(C)OC(=O)NC(=O)C(F)(F)F,-13%,1%
CCn1nc(C)cc1C(=O)N(C)C1CCCN(Cc2ccccc2F)C1 (configuration not stated),-13%,-7%
CCN(CC)CCNC(=O)Cn1cnc2sc(C)c(S(=O)(=O)N3CCC(C)CC3)c2c1=O,0%&-4%,-19%&-15%
CCCn1c(SCC(=O)OCC)nc(C(F)(F)F)cc1=O,-14%,-17%
CCn1cc(C(=O)NCc2ccc(Cl)cc2)c(=O)c2cc(S(=O)(=O)N(C)C3CCCCC3)ccc21,-4%,?
COc1cc(NC(=O)CN(c2cc(C)cc(C)c2)S(=O)(=O)c2c(C)[nH]c(=O)[nH]c2=O)cc(OC)c1,-7%[7.34 µM],6%[7.34 µM]
CC(C)CN(C(=O)c1ccc([N+](=O)[O-])s1)c1c(N)n(Cc2ccccc2)c(=O)[nH]c1=O,20µM*,?
Cc1cc(C(=O)NNC(=O)c2ccccc2[N+](=O)[O-])c(C)o1,-14%,-10%
CNC(=O)c1c(NC(=O)c2cc(=O)c3cc(C)c(C)cc3o2)sc2c1CCCC2,-12%,6%
CC(=O)Oc1ccc(-c2cc3c(OC(C)=O)cc(OC(C)=O)cc3oc2=O)cc1,-2%,-11%
CCOc1ccc(CN2CCCC(CO)(Cc3ccc(F)cc3)C2)cc1 (configuration not stated),?,-23%
Cc1nn(-c2ccccc2)c(C)c1/C=N/NC(=O)CSc1nnc(SCc2ccc(Cl)cc2)s1,?,?
COc1cc(C(=O)Nc2nnc(CC(C)(C)C)s2)c([N+](=O)[O-])cc1OC,i,-14%
O=C(CSc1nnc(C2COc3ccccc3O2)o1)Nc1ccc(F)cc1Cl (configuration not stated),-8%,-11%
COc1ccc(C(=O)OCc2cc(=O)n3nc(C4CC4)sc3n2)cc1OC,-8%,-9%

# Continued, overlapping the part above by 2 compounds.
SMILES,VACV mCherry inh,Vaccinia Venus
O=C(CSc1nnc(C2COc3ccccc3O2)o1)Nc1ccc(F)cc1Cl (configuration not stated),-8%,-11%
COc1ccc(C(=O)OCc2cc(=O)n3nc(C4CC4)sc3n2)cc1OC,-8%,-9%
COc1ccc(C(=O)O/N=C(\N)Cc2ccc(Cl)cc2Cl)cc1OC,-7%,-22%
Nc1ncnc2c1nc(N1CCCCC1)n2[C@@H]1O[C@H](CO)[C@@H](O)[C@H]1O,i,0%
O=C(Nc1cccc(C(F)(F)F)c1)C1CCN(S(=O)(=O)c2cccc3nsnc23)CC1,i,-9%
COc1ccccc1NC(=O)CN1CCCCC1,·,-19%
Nc1c(C(=O)Nc2ccccc2F)sc2nc3c(cc12)CCCCCC3,?,-22%
CCOC(=O)c1c(/N=C/c2cc(OC)cc([N+](=O)[O-])c2O)sc(C)c1C,-13%,-9%
C[C@@H]1CN[C@H](CCO)/C1=C\c1ccccc1,-18%,-1%
CC(C)(C)NC(=O)Cn1nnc(-c2ccccc2NC(=O)c2cnccn2)n1,-4%,-11%
Cc1occc1C(=O)NC1CCCN(Cc2ccc(Cl)cc2)C1 (configuration not stated),-1%,-3%

# Screens as filed in PubChem BioAssay.
